Screens deposited in PubChem BioAssay by Center for Chemical Genomics, University of Michigan.
TAR Tat displ: TAR RNA-Tat peptide displacers, HIV-1, primary screen, biochemical, FRET, FAM/TAMRA-labeled Tat. AID 1259389, 2018. 100,000 compounds, 0.6% hits. HIV-1 TAR RNA, Tat peptide displacement FRET; active compounds read high. z-score (concentration not given with the values);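 also: score is relative to mean and SD of negative controls; some compounds called inactive have numbers as strong as hits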
CDC25B CDK2 inh: primary biochemical HTRF screen for blockers of M-phase inducer phosphatase 2 binding to CDK2/cyclin A. HTRF CDC25B-CDK2/CyclinA binding, anti-His/anti-Flag; active compounds read high. P30305+P24941. z-score (concentration not given with the values). 94,000 compounds, 0.72% hits. AID 1259370, 2018;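 also: score is relative to mean and SD of negative controls; strong numbers were not always called active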
An asterisk follows results filed as active; nt = no result given; & = joins results of further samples.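 The calls were made as follows: active = z-score from 3 up in half or more of its runs; inactive = the rest.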

Sample of the layout, 2 compounds:
Second line of a record – CDC25B CDK2 inh | TAR Tat displ
O=C1CC(c2cc(F)ccc2F)c2c(nc(SCc3ccccc3Cl)[nH]c2=O)N1 (stereo not drawn)
 : -1.93 | 3.23
O=c1ccnc(SCc2ccccc2Cl)[nH]1
 : -1.16 | -0.29

The list itself (from the top)
Second line of a record – CDC25B CDK2 inh | TAR Tat displ
O=C1CC(c2cc(F)ccc2F)c2c(nc(SCc3ccccc3Cl)[nH]c2=O)N1 (stereo not drawn)
 : -1.93 | 3.23
O=c1ccnc(SCc2ccccc2Cl)[nH]1
 : -1.16 | -0.29
Cc1ccc(O)c(C2=NN3C(C2)c2ccccc2OC3C(C)C)c1 (stereo not drawn)
 : -1.36 | -0.43
Cc1nn(C)c(C)c1CNC(=O)c1cnc(N2CCOCC2)nc1
 : nt | 0.53
O=C1CCCC2=C1C(c1ccc(Br)cc1)C1C(=O)c3ccccc3C1=N2 (stereo not drawn)
 : -13.5 | -0.47
COc1ccc(OCC(O)CNC(=O)c2sccc2Cl)cc1 (stereo not drawn)
 : -1.34 | nt
Cc1cc(S(=O)(=O)NC(c2nnc(-c3ccccc3)o2)c2ccccc2F)ccc1F (stereo not drawn)
 : nt | -1.04
COc1ccc(NCC(O)Cn2ccc3ccccc32)cc1 (stereo not drawn)
 : 0.44 | 0.84
COc1ccc(C2C=C(c3ccc(Br)cc3)Nc3nc(NS(C)(=O)=O)nn32)cc1 (stereo not drawn)
 : 0.44 | -0.04
Cc1ccc(S(=O)(=O)c2cn(C)c3cc(N4CC(C)CC(C)C4)c(F)cc3c2=O)cc1 (stereo not drawn)
 : nt | -1.22
C=CCNC(=O)CN1c2ccc(C(C)C)cc2-c2ccccc2S1(=O)=O
 : -1.14 | 0.97
Cc1csc2nc(CSCc3ccco3)cc(=O)n12
 : -0.36 | -1.23
O=C(CN1C(=O)CCc2cc(Br)ccc21)Nc1cccnc1
 : nt | 1.19
CCOc1ccc(C2CC(c3ccc(Cl)cc3)n3nnnc3N2)cc1 (stereo not drawn)
 : nt | 2.45
CC(=O)O/N=C(\N)c1ccc(F)cc1F
 : -2 | nt
CCC(=O)Oc1cc2c(C(=O)OC)c(C)oc2cc1Br
 : -1.17 | 1.43
Cc1ccc(C(=N)N)cc1F
 : -2.77 | nt
CC(C)(C)NC(=O)c1cnn2c(C(F)F)cc(-c3ccccc3)nc12
 : 2.39 | -0.95
O=C(COc1ccccc1Cl)N(Cc1ccco1)Cc1ccco1
 : -0.32 | 0.44
O=C1CCC(C(=O)Nc2ccccc2N2CCOCC2)=NN1
 : -0.8 | nt
CCC(C(=O)Nc1ccc(F)cc1F)n1c2ccccc2c2nc(=O)cc(C)n21 (stereo not drawn)
 : -0.91 | -3.32
CCN(C(=O)C(=O)c1c(C)n(C)c2ccccc12)C1CCCCC1
 : -1.38 | nt
COc1ccc(Oc2coc3cc(OC(C)C(=O)OCC(C)C)ccc3c2=O)cc1 (stereo not drawn)
 : 0.48 | nt
Cc1ccc(CNC(=O)Cn2ncn3c(cc4sc(C)cc43)c2=O)cc1
 : -2.12 | -0.81
CCN(CC)c1ccc2nnc(CCC(=O)NCCOC)n2n1
 : nt | 0.82
CN(C)CCNC(=O)C1CCCN(c2ncnc3c2nc2n3CCCCC2)C1 (stereo not drawn)
 : nt | 0.39
N#CC(C#N)=CNCCS(=O)(=O)c1ccc(C(F)(F)F)cn1
 : -1.12 | nt
COc1cc2cc(OC(=O)c3ccc([N+](=O)[O-])cc3)nc(C)c2cc1OC
 : -1 | nt
Cc1cccc(N(C)Cc2nnc(-c3cccc(Br)c3)o2)c1
 : -1.42 | -0.26
Cc1nc(NC2=NCN(CCN3CCOCC3)CN2)nc2c(C)cccc12
 : 2.19 | -0.87

7 entries from above, bar-delimited.
SMILES | CDC25B CDK2 inh | TAR Tat displ
COc1ccc(Oc2coc3cc(OC(C)C(=O)OCC(C)C)ccc3c2=O)cc1 (stereo not drawn) | 0.48 | nt
Cc1ccc(CNC(=O)Cn2ncn3c(cc4sc(C)cc43)c2=O)cc1 | -2.12 | -0.81
CCN(CC)c1ccc2nnc(CCC(=O)NCCOC)n2n1 | nt | 0.82
CN(C)CCNC(=O)C1CCCN(c2ncnc3c2nc2n3CCCCC2)C1 (stereo not drawn) | nt | 0.39
N#CC(C#N)=CNCCS(=O)(=O)c1ccc(C(F)(F)F)cn1 | -1.12 | nt
COc1cc2cc(OC(=O)c3ccc([N+](=O)[O-])cc3)nc(C)c2cc1OC | -1 | nt
Cc1cccc(N(C)Cc2nnc(-c3cccc(Br)c3)o2)c1 | -1.42 | -0.26

The results go on:
Second line of a record – CDC25B CDK2 inh | TAR Tat displ
CC(=O)c1cc(-c2ccccc2)sc1C
 : -1.63 | nt
O=C(O)c1cnn2c(C(F)F)cc(-c3ccc(F)cc3)nc12
 : -2.08 | -0.01
CCOCCCNC(=O)C1CCCN1c1nnc(N2CCCC2=O)s1 (stereo not drawn)
 : -1.84 | 2.09
O=C(Nc1cccc(Cl)c1)NC(c1ccccc1)c1nnc(-c2ccccc2)o1 (stereo not drawn)
 : nt | 1.5
O=C(Nc1cc(F)ccc1F)N1CCN(c2nc3cc(F)ccc3n3cccc23)CC1
 : nt | 0.77
CC1(C)Cc2nc3sc4c(SCC(=O)N5CCCC5)ncnc4c3cc2CO1
 : nt | 0.5
CCOC(=O)c1ccc2c(c1)n(CCO)c(C)[n+]2CCO
 : 0.07&-2.04 | 1.55
CCn1nc(C)c(CCNC(=O)Nc2cc(OC)ccc2OC)c1C
 : nt | 2.27
CNC(=O)c1cc(S(=O)(=O)N2CCc3ccccc32)cn1C
 : -1.09 | 1.46
CCc1ccc2ncc(S(=O)(=O)c3ccc(Cl)cc3)c(N3CCN(C)CC3)c2c1
 : -2.59 | -0.39
Cc1cnc(C(=O)Nc2nn[nH]n2)cn1
 : -2.02 | nt
CSc1sc(C(=O)NNC(=O)c2ccccc2Cl)cc1S(=O)(=O)C(C)C
 : -0.64 | nt
CC1=C(c2ccc(C)c(C)c2)S(=O)(=O)N=C1Nc1ccccc1F
 : -2.44 | -2.94
O=C(CCS(=O)(=O)c1cc2c3c(c1)CCN3C(=O)CC2)Nc1ccccc1
 : nt | 1.73
Cc1cc(=O)n2nc(N3CCC(C(=O)NCCCOC(C)C)CC3)sc2n1
 : 0.09 | 1.63
CCCCCCCCCCCCCCSCC(=O)O
 : -0.2 | nt
CC1CC(=O)Nc2cc(S(=O)(=O)N3CCN(c4ccc(F)cc4)CC3)ccc2S1 (stereo not drawn)
 : nt | 0.28
CC(C)(C)C1CCc2onc(C(=O)N3CCN(c4ccc(F)cc4)CC3)c2C1 (stereo not drawn)
 : -1.56 | 0.64
O=C1CSc2ccc(S(=O)(=O)CCC(=O)N(CCc3ccccc3)Cc3ccccc3)cc2N1
 : nt | 1.7
COc1ccc(C2/C(=C(/O)c3ccc(C)cc3)C(=O)C(=O)N2CC(C)C)cc1OC (stereo not drawn)
 : -1.8 | -0.69
O=C(C1Cc2ccccc2C1)N1CCOCC1
 : -0.76 | nt
CC1CCCC(C)N1CCCNC(=O)C1CCCN(S(=O)(=O)N2CCCCC2)C1 (stereo not drawn)
 : nt | 0.16
CCOc1cccc2c1OC(c1cccnc1)N1N=C(c3ccccc3)CC21 (stereo not drawn)
 : -0.51 | 1.45
NC(N)=NC(N)=Nc1ccc(C2CCCCC2)cc1
 : -1.45 | nt
CC(C)NC(=O)CN1C(=O)c2ccccc2S1(=O)=O
 : -0.89 | 2.75
Cc1cc(C)c2c(n1)SCC(=O)N2Cc1cc(=O)n2ccccc2n1
 : -2.52 | -0.06
O=C(Nc1nc(-c2cccs2)ns1)c1ccc(Cl)cc1
 : -6.45 | 1.73
O=C(Nc1cc(F)c2nc(N3CCCC3)ccc2c1)c1cccs1
 : nt | 0.13
O=C1C(=O)N(CCCN2CCOCC2)C(c2ccc(Cl)cc2)/C1=C(\O)c1ccc(F)cc1 (stereo not drawn)
 : -1.68 | 1.29
COc1ccc(Cl)cc1NC(=O)c1cnn2c3c(cnc12)CCCCCC3
 : nt | -1.77
COc1ccc(C(=O)CSc2nc(=O)n(-c3ccc(Cl)cc3)c3c2CCC3)cc1OC
 : -1.27 | 2.02
Cc1cc(N)c(-n2c(-c3ccc(Cl)cc3)cn3c4c(=O)n(C)c(=O)n(C)c4nc23)cc1C
 : 4.99 | 0.41
COc1ccc(NS(=O)(=O)c2ccc3c4c2CC(=O)N4CC(C)S3)cc1Cl (stereo not drawn)
 : nt | 0.03
Cc1ccc(NS(=O)(=O)c2cc(-c3ccc(=O)[nH]n3)ccc2C)cc1F
 : 0.81 | 0.43
OC(CN1CCCCC1)Cn1ccc2ccccc21 (stereo not drawn)
 : -1.76 | 2.41
CSC1=NCC(=O)N1Cc1cccc(Cl)c1
 : 0.07 | nt
O=C(NCc1cccs1)C1CCN(c2ccccc2)C1=O (stereo not drawn)
 : nt | 0.22
CCOC(=O)Cc1c(C)nc2nc(NCc3cccs3)[nH]n2c1=O
 : -2.5 | -0.23
CS(=O)(=O)CCC(C(=O)Nc1cccnc1)N1Cc2ccccc2C1=O (stereo not drawn)
 : nt | -0.08
CCCc1sc(NC(=O)c2ccc([N+](=O)[O-])cc2)nc1-c1ccc(Cl)c(Cl)c1
 : -1.6 | nt
CCOc1ccc(CNS(=O)(=O)c2cc(-c3onc(C)c3C)ccc2C)cc1
 : nt | -0.07
CC(/C=C/c1ccccc1)=N\OC(=O)c1cccs1
 : -2.52 | nt
COCCCNC(=O)C1CCN(c2nnc(-n3cccc3)s2)CC1
 : -0.7 | 0.76
O=c1c2c(nc3c(-c4ccc(Cl)cc4)c[nH]n13)CCC2
 : 0.36 | 11.1
C=CCSc1ncc(Cl)c(C(=O)Nc2nnc(C(C)C)s2)n1
 : -0.98 | 0.66
CC1(C)CC(=O)C2=C(C1)OC(N)=C(C#N)C2c1ccc(F)c(Br)c1 (stereo not drawn)
 : -1.41 | nt
CC1CCc2c(sc(NC(=O)Nc3ccc(Cl)cc3)c2C(N)=O)C1 (stereo not drawn)
 : -1.37 | -0.17
CCOc1nc(C)ccc1-c1noc(-c2ccccc2Br)n1
 : -1.32 | 0.03
CCN(CC)CCCNC(=O)c1oc2ccc(S(=O)(=O)N3CC(C)CC(C)C3)cc2c1C (stereo not drawn)
 : 0.53 | nt
Cc1nc(SCc2c(F)cccc2Cl)c2c(=O)n(C)c(=O)n(C)c2n1
 : -0.69 | nt
O=c1[nH]c(-c2ccccc2)cs1
 : -1.54 | nt
O=C(Nc1ccccc1Cl)n1ncc2cc(Cl)ccc21
 : -0.52 | 0.3
CCCOC(=O)C1=C(C)NC2=C(C(=O)CC(c3cccs3)C2)C1c1ccc2c(c1)OCO2 (stereo not drawn)
 : -1.41 | 0.68
S=c1[nH]cc2ccccn12
 : -1.78 | nt
N#Cc1cc2c(nc1SCC(=O)O)CCC2
 : -2.48 | nt
COC(=O)C(Cc1c[nH]c2ccccc12)NC(=O)OCC(C)C (stereo not drawn)
 : 0.6 | 0.48
CC(C)CC(C(=O)Nc1ccc(Br)cc1)N1Cc2ccccc2C1=O (stereo not drawn)
 : nt | 0.03
Cc1ccc(C)c(N2CCN(c3c4c(nc5ncnn35)CCC4)CC2)c1
 : nt | 1.38
Nc1ccc(C(=O)O)cc1
 : nt | 1.62
COC(=O)c1cc(S(=O)(=O)N2CC(C)CC(C)C2)cn1C (stereo not drawn)
 : nt | 1.08

(more compounds)
Second line of a record – CDC25B CDK2 inh | TAR Tat displ
CN(CC(=O)NC1CCCC1)S(=O)(=O)c1ccc2[nH]c(=O)ccc2c1
 : nt | -1
O=C(c1ccc(F)cc1)c1ccc(N2CCCC2)cc1
 : -2.65 | -1.15
CCCC12CN3CC(CCC)(CN(C1)C3c1ccc([N+](=O)[O-])o1)C2=O (stereo not drawn)
 : -0.63 | 2.46
CS(=O)(=O)N(CC(=O)Nc1ccccc1Cl)c1cc(Cl)cc(Cl)c1
 : -2.37 | nt
O=C(NCc1ccccn1)C(=O)NCC(c1ccco1)S(=O)(=O)c1cccs1 (stereo not drawn)
 : nt | 1.89
O=c1c(-c2ccc(Cl)cc2)c(N2CCN(c3cccc(Cl)c3)CC2)c1=O
 : nt | -0.17
c1cc(-c2nc(-c3ccc4c(c3)ncn4C3CCCC3)no2)ccn1
 : nt | 2.22
Cc1ccc(-c2nc(C#N)c(NCCCN3CCOCC3)o2)cc1
 : -0.48 | 3.17
N#C/C(=C\c1ccccn1)c1nc(-c2ccc(Cl)cc2)cs1
 : -2.69 | nt
CC(=O)N1CCSc2ccc(S(=O)(=O)NC3CCCC3)cc21
 : nt | 0.15
O=C(Nc1nc2ccc(S(=O)(=O)N3CCCCC3)cc2s1)C1CCCO1 (stereo not drawn)
 : nt | 1.75
CSc1ncc(C(=O)Nc2ccc(Cc3ccncc3)cc2)c(C(F)(F)F)n1
 : nt | 0.6
COC(=O)c1ccc(NC(=O)NC(C)c2c(-n3cccc3)sc(C)c2C)cc1 (stereo not drawn)
 : 1.73 | 0.7
CCC(C(=O)N1CCCCC1)n1nc(C)n2c(cc3sccc32)c1=O (stereo not drawn)
 : -2.08 | nt
Cc1ccc2sc(C3=NN(C)C(O)(C(F)(F)F)C3)c(C)c2c1 (stereo not drawn)
 : -0.67 | nt
O=S1(=O)CC2SC(=S)N(Cc3ccccc3)C2C1 (stereo not drawn)
 : 0.46 | nt
Cc1c(C(=O)NCCN(C)C)sc2nc3n(c(=O)c12)CCCC3
 : nt | 1.4
Cc1nc2ccc(CCO)cc2s1
 : -2.91 | 1.32
CCOC(=O)c1ccc(OS(=O)(=O)c2ccc(NC(C)=O)cc2)cc1
 : 1.13 | nt
CC1=C(C(=O)OCC2CCCO2)C(c2ccc(F)cc2)C2=C(CCCC2=O)N1 (stereo not drawn)
 : -0.02 | 1.01
Cc1ccc(C2/C(=C(\O)c3ccccc3)C(=O)C(=O)N2CCN2CCOCC2)o1 (stereo not drawn)
 : -1.71 | 0.17
Cc1cc(-c2ccc(S(=O)(=O)Nc3ccc(F)cc3F)s2)on1
 : nt | -0.89
COc1cc(C)nc(NC(=O)Nc2sc(=S)n(C)c2C)n1
 : -0.87 | -2.26
Cc1ccsc1CCNC(=O)Cn1c(=O)oc2ccccc21
 : nt | -0.59
